Shn3 inh set2: Schnurri-3 reporter inhibition in Clone20 osteoblasts; Clone20 osteoblast Shn3 3'UTR firefly luciferase, 24 h; AID 588674; inhibition, % at 12.5 µM; actives 0.52% (n = 360,000);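 active = mean inhibition of at least 75% with every replicate also reaching 75%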;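 also: 0% = median of neutral control wells and 100% = pilot-screen positive control compound; some compounds past the cut are filed as inactive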
NR2E3 ag-1: human photoreceptor-specific nuclear receptor agonism | CHO-S Gal4-NCOR/VP16-NR2E3 two-hybrid, luciferase | inhibition of corepressor binding, % at 3.98 µM | actives 0.35% (n = 360,000) | AID 602229;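 active = inhibition above the mean of all tested compounds plus 3 SD, cut at about 70% in these data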;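 also: 0% = DMSO with NR2E3 transfected cells and 100% = cells lacking NR2E3 construct; higher means lower luciferase signal from less NR2E3 corepressor binding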
Target sequence (Q9Y5X4 whole entry, looked up, the tested form may be a part): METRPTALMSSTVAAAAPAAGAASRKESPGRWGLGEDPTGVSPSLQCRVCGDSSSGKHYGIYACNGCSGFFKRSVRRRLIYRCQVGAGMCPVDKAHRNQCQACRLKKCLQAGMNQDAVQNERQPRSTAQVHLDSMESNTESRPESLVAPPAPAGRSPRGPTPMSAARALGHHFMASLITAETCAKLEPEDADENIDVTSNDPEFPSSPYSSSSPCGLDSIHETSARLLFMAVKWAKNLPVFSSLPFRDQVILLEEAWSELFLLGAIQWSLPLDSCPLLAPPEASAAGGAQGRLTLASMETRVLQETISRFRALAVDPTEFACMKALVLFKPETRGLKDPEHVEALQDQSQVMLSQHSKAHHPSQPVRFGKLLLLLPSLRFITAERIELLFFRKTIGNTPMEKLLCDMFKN
NR2E3 ag-2: NR2E3 (human) agonism; Q9Y5X4; GST-NR2E3/biotin-RetCOR TR-FRET, 1536-well; inhibition of corepressor binding, % at 4.78 µM; actives 0.12% (n = 320,000); AID 2300;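 active = percent inhibition above the cutoff of mean plus 3 SD of all tested compounds, set per screening campaign, cut at about 20% in these data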;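 also: 0% = DMSO wells and 100% = biotin wells as full block of FRET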
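Assay system: NR2E3–RetCOR corepressor complex. Quantity: 1.35 nM GST-NR2E3. Buffer or medium: pH 7.5 Tris-based buffer. Reagent: biotinylated RetCOR corepressor at 7 nM final. Schedule: 5 h at 4 °C. Detection: TR-FRET, emission read at 617 and 671 nm. Replicates: one well per compound, singlicate testing.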
TRPM1 prom inh: inhibitors of MITF-driven TRPM1 promoter in melanoma cells; SK-MEL-5 TRPM1 promoter luciferase, 24 h; actives 0.83% (n = 330,000); inhibition, % at 12.5 µM;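 active = mean inhibition across replicates of 60% or more, whatever share of single replicates reaches that level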; also: values of inactives mirror those of a sister screen read the other way
Peg3 promoter: reduces Peg3 promoter-driven luciferase expression in HeLa | actives 1.7% (n = 360,000) | inhibition, % at 20 µM | HeLa PEG-Prom luciferase reporter, luminescence, overnight;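 active = inhibition of at least 50% at 20 µM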
EBV LMP1 NFkB: reduces LMP1-driven NF-kappaB luciferase signal | LMP1-induced NF-kappaB luciferase reporter cells, luminescence | inhibition, % at 12.5 µM | actives 0.69% (n = 350,000); in the data active = inhibition above about 41%;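 also: 0% = neutral control wells and 100% = reference inhibitor control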
HIF-2a inh: inhibitors of HIF-2a | 786-0 RCC cells HIF-2a reporter, luciferase luminescence, overnight | inhibition, % at 18.8 µM | actives 0.72% (n = 360,000) | AID 624352;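 active = inhibition of the luminescence signal of 40% or more relative to plate controls, in a single-dose primary screen at 18.75 µM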
The depositor's hits bear a star; nt = no result given. A portion of the library (hit frequency here may not be typical).

entry | compound | Shn3 inh set2 | NR2E3 ag-1 | NR2E3 ag-2 | TRPM1 prom inh | Peg3 promoter | EBV LMP1 NFkB | HIF-2a inh
1 | Cc1cn(C2C=CC(CO)O2)c(=O)[nH]c1=O (configuration not stated) | 5 | 28 | -3 | -7 | 3 | -5 | 10
2 | CC(NC(=O)CCl)c1ccc(Cl)c(Cl)c1 (configuration not stated) | 1 | -4 | 5 | 4 | 35 | -14 | 17
3 | O=C(NC1=NC2CCCCC2N1)c1ccccc1 (configuration not stated) | -16 | -137 | 2 | 10 | -17 | 29 | -20
4 | O=C(CCl)N1N=C(c2ccco2)CC1c1cccs1 (configuration not stated) | -4 | -15 | 1 | 74* | 90* | 66* | 40*
5 | NC(=O)C1CCN(C(=O)Nc2ccccc2)CC1 | 2 | -3 | 0 | -5 | 4 | -4 | 4
6 | N#Cc1ccc(CNC(=O)N2CCOCC2)cc1 | -9 | -7 | 2 | nt | -5 | 0 | -5
7 | CCOC(=O)c1ccc(NC(=O)Nc2ccccn2)cc1 | -64 | -78 | -2 | -106 | -290 | 5 | -274

EBV LMP1 NFkB, what is marked active above
entry | compound | Shn3 inh set2 | NR2E3 ag-1 | NR2E3 ag-2 | TRPM1 prom inh | Peg3 promoter | EBV LMP1 NFkB | HIF-2a inh
4 | O=C(CCl)N1N=C(c2ccco2)CC1c1cccs1 (configuration not stated) | -4 | -15 | 1 | 74* | 90* | 66* | 40*

Single records, as listed above. Order of screens: Shn3 inh set2, NR2E3 ag-1, NR2E3 ag-2, TRPM1 prom inh, Peg3 promoter, EBV LMP1 NFkB, HIF-2a inh
CC(NC(=O)CCl)c1ccc(Cl)c(Cl)c1 (configuration not stated) in the list: 1, -4, 5, 4, 35, -14, 17
O=C(CCl)N1N=C(c2ccco2)CC1c1cccs1 (configuration not stated) in the list: -4, -15, 1, 74*, 90*, 66*, 40*
N#Cc1ccc(CNC(=O)N2CCOCC2)cc1 in the list: -9, -7, 2, nt, -5, 0, -5

Down the list, from the results shown:
TRPM1 prom inh for entries 1–7: -7, 4, 10, 74*, -5, nt, -106
NR2E3 ag-1 for entries 1–7: 28, -4, -137, -15, -3, -7, -78
NR2E3 ag-2 for entries 1–7: -3, 5, 2, 1, 0, 2, -2
